Source: PubChem (Broad Institute)
Env fusion inh = HIV envelope-mediated fusion inhibition. HeLa-JRFL Env/CEM21 cell fusion, luciferase. inhibition, % at 12.3 µM. 360,000 tested, 1.1% active. AID 651610;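 active means mean replicate inhibition score of at least 50 and every replicate individually at or above 50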;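 further: 0% = plate neutral controls and 100% = maraviroc near 300 nM; one replicate is shown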
Yeast UUG start = alters start codon recognition fidelity in yeast | S. cerevisiae UUG-firefly luciferase reporter, luminescence/redox ratio | activity score, % at 18.7 µM | 350,000 tested, 0.13% active | AID 602363;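 active means replicate mean at a twofold rise or more, about +100% in these data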;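 further: firefly luciferase made from a UUG start codon reports start codon fidelity; reporter light over untreated wells divided by growth signal over untreated wells; some hits fall short of that in this replicate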
An asterisk follows results filed as active; [ ] = another dose, or the depositor's remark. Not all compounds are listed; rates above refer to the full screens.

How did COc1ccccc1NC(=O)N[C@@H]1CC[C@@H](CCNC(=O)c2ccc3c(c2)OCO3)O[C@H]1CO do in these assays?
Env fusion inh: 9[16.7 µM]; Yeast UUG start: 9

What do the screens show for `C[C@@H]1CCCCO[C@H](CN(C)Cc2ccc3c(c2)OCO3)[C@H](C)CN([C@H](C)CO)C(=O)c2cc(NS(C)(=O)=O)ccc2O1`?
Env fusion inh: 10[16.7 µM]; Yeast UUG start: 16

What do the screens show for `C[C@@H]1CN([C@@H](C)CO)C(=O)c2cc(C3=CCCC3)cnc2O[C@H]1CN(C)C(=O)Nc1ccc(C(F)(F)F)cc1`?
Env fusion inh: 2[16.7 µM]; Yeast UUG start: -7

How did CC(C)C#Cc1ccc2c(c1)O[C@@H](CN(C)C)[C@@H](C)CN([C@@H](C)CO)S2(=O)=O do in these assays?
Env fusion inh: -3[16.7 µM]; Yeast UUG start: -2

Results for COc1cccc(-c2ccc([C@@H]3[C@@H](CO)N(C(=O)Cc4ccccc4)[C@H]3C#N)cc2)c1 ?
Env fusion inh: 16[16.7 µM]; Yeast UUG start: -16

What do the screens show for `C[C@H](CO)N1C[C@H](C)[C@@H](CN(C)C(=O)C2CCCCC2)Oc2ncc(C#CC3(O)CCCC3)cc2C1=O`?
Env fusion inh: 4[16.7 µM]; Yeast UUG start: 20

How did O=C(CCN1CCCCC1)NCC[C@@H]1CC[C@@H](NC(=O)C2CCC2)[C@H](CO)O1 do in these assays?
Env fusion inh: -31[16.7 µM]; Yeast UUG start: 17

Results for C[C@H](CO)N1C[C@H](C)[C@H](CN(C)Cc2ccc(C(F)(F)F)cc2)Oc2ccc(NC(=O)c3ccncc3)cc2C1=O ?
Env fusion inh: 12[16.7 µM]; Yeast UUG start: -2

How did CCC(=O)Nc1ccc2c(c1)C(=O)N(C)[C@@H]1CC[C@H](CC(=O)NCCc3ccccc3)O[C@@H]1CO2 do in these assays?
Env fusion inh: -4[16.7 µM]; Yeast UUG start: -11

What do the screens show for `CCCNC(=O)C[C@H]1C[C@H]2c3cc(NS(=O)(=O)c4ccc(F)cc4)ccc3O[C@H]2[C@@H](CO)O1`?
Env fusion inh: -10[16.7 µM]; Yeast UUG start: 5

How did COCC(=O)N(C)C[C@H]1Oc2ncc(-c3ccccc3C)cc2C(=O)N([C@@H](C)CO)C[C@@H]1C do in these assays?
Env fusion inh: 9[16.7 µM]; Yeast UUG start: 0

How did O=C(C[C@H]1C[C@@H]2c3cc(NC(=O)NC4CCCC4)ccc3O[C@@H]2[C@H](CO)O1)NCc1ccccc1 do in these assays?
Env fusion inh: 12[16.7 µM]; Yeast UUG start: -13

What do the screens show for `C[C@H](O)C#Cc1cnc2c(c1)C(=O)N([C@H](C)CO)C[C@H](C)[C@@H](CN(C)Cc1cccc(F)c1)O2`?
Env fusion inh: 3[16.7 µM]; Yeast UUG start: 8

What do the screens show for `Cc1ccc(S(=O)(=O)N(C)C[C@H]2Oc3ccc(NC(=O)CCCCCC(=O)Nc4ccccc4N)cc3CC(=O)N([C@H](C)CO)C[C@@H]2C)cc1`?
Env fusion inh: 16[16.7 µM]; Yeast UUG start: 2

Results for C[C@@H]1CCCCO[C@H](CN(C)Cc2ccc3c(c2)OCO3)[C@H](C)CN([C@@H](C)CO)C(=O)c2cc(NC(=O)Nc3cccc4ccccc34)ccc2O1 ?
Env fusion inh: -13[16.7 µM]; Yeast UUG start: 15

Results for CCCC(=O)Nc1ccc2c(c1)OC[C@@H](C)N(C(=O)C1CCCC1)C[C@@H](C)[C@H](OC)CN(C)C2=O ?
Env fusion inh: -21[16.7 µM]; Yeast UUG start: 61

What do the screens show for `C[C@H](CO)N1C[C@H](C)[C@@H](CN(C)S(=O)(=O)c2ccc(F)cc2)Oc2ccc(NC(=O)CCCN(C)C)cc2CC1=O`?
Env fusion inh: 1[16.7 µM]; Yeast UUG start: 8

Results for C[C@H]1CN([C@@H](C)CO)C(=O)c2cc(-c3ccc(F)cc3)cnc2O[C@@H]1CN(C)S(C)(=O)=O ?
Env fusion inh: 5[16.7 µM]; Yeast UUG start: 1

What do the screens show for `CC(C)NC(=O)N(C)C[C@@H]1Oc2ncc(-c3ccccc3)cc2C(=O)N([C@H](C)CO)C[C@@H]1C`?
Env fusion inh: 2[16.7 µM]; Yeast UUG start: -2

How did C[C@@H]1CN([C@H](C)CO)C(=O)c2cc(NC(=O)NC3CCCCC3)ccc2O[C@@H]1CN(C)C(=O)Nc1ccc(F)cc1 do in these assays?
Env fusion inh: -11[16.7 µM]; Yeast UUG start: -9

What do the screens show for `CC(C)CC#Cc1cnc2c(c1)C(=O)N([C@H](C)CO)C[C@H](C)[C@@H](CN(C)C(=O)Nc1cccc(F)c1)O2`?
Env fusion inh: -18[16.7 µM]; Yeast UUG start: 9

Results for C[C@H]1CN([C@@H](C)CO)C(=O)Cc2cc(NS(=O)(=O)c3ccccc3)ccc2O[C@H]1CN(C)S(=O)(=O)c1cccs1 ?
Env fusion inh: 19[16.7 µM]; Yeast UUG start: 14

What do the screens show for `C[C@H](CO)N1C[C@H](C)[C@@H](CN(C)S(=O)(=O)c2ccc(F)cc2)Oc2ccc(NC(=O)Nc3ccc(F)cc3)cc2C1=O`?
Env fusion inh: 5[16.7 µM]; Yeast UUG start: 9

Results for C[C@@H]1CN([C@H](C)CO)C(=O)c2cccc(NC(=O)C3CCOCC3)c2O[C@@H]1CN(C)C(=O)Nc1ccc(C(F)(F)F)cc1 ?
Env fusion inh: -13[16.7 µM]; Yeast UUG start: 3

What do the screens show for `C[C@@H]1CN([C@@H](C)CO)C(=O)Cc2cc(NC(=O)Nc3ccc4c(c3)OCO4)ccc2O[C@@H]1CN(C)C(=O)Nc1ccccc1`?
Env fusion inh: 5[16.7 µM]; Yeast UUG start: 7

Results for COCCNC(=O)C[C@H]1CC[C@H]2[C@@H](COc3ccc(NC(=O)COC)cc3C(=O)N2C)O1 ?
Env fusion inh: -19[16.7 µM]; Yeast UUG start: -3

How did C[C@H](O)C#Cc1cnc2c(c1)C(=O)N([C@H](C)CO)C[C@H](C)[C@@H](CN(C)C(=O)Nc1ccc(C(F)(F)F)cc1)O2 do in these assays?
Env fusion inh: -2[16.7 µM]; Yeast UUG start: 9

How did CCC(=O)N(C)C[C@@H]1Oc2ncc(C#C[C@@H](C)O)cc2C(=O)N([C@H](C)CO)C[C@H]1C do in these assays?
Env fusion inh: -3[16.7 µM]; Yeast UUG start: 9

How did COc1ccc(NC(=O)N[C@H]2CC[C@@H](CC(=O)NCc3ccccn3)O[C@H]2CO)cc1 do in these assays?
Env fusion inh: -4[16.7 µM]; Yeast UUG start: -9

How did C[C@@H]1CN([C@@H](C)CO)C(=O)c2cccc(NC(=O)c3nc4ccccc4s3)c2O[C@@H]1CN(C)Cc1ccc(Oc2ccccc2)cc1 do in these assays?
Env fusion inh: 18[16.7 µM]; Yeast UUG start: -8

Results for C[C@H](CO)N1C[C@H](C)[C@@H](CN(C)Cc2ccncc2)Oc2cc(C3=CCCC3)ccc2S1(=O)=O ?
Env fusion inh: -1[16.7 µM]; Yeast UUG start: -5

What do the screens show for `C[C@H]1CN([C@@H](C)CO)S(=O)(=O)c2ccc(C#Cc3ccncc3)cc2O[C@H]1CN(C)C(=O)c1ccncc1`?
Env fusion inh: 25[16.7 µM]; Yeast UUG start: -1

Results for O=C(CN1CCOCC1)N[C@@H]1CC[C@@H](CCNC(=O)C2CCCC2)O[C@H]1CO ?
Env fusion inh: -8[16.7 µM]; Yeast UUG start: -4

Results for C[C@H]1CN([C@@H](C)CO)C(=O)Cc2cc(N(C)C)ccc2O[C@H]1CN(C)S(=O)(=O)c1cn(C)cn1 ?
Env fusion inh: -16[16.7 µM]; Yeast UUG start: 5

How did C[C@@H]1CCCCO[C@H](CN(C)S(=O)(=O)c2cccs2)[C@H](C)CN([C@@H](C)CO)C(=O)c2cc(NS(C)(=O)=O)ccc2O1 do in these assays?
Env fusion inh: 4[16.7 µM]; Yeast UUG start: -2

How did Cc1ccccc1CN(C)C[C@@H]1OCc2cnnn2CCCC(=O)N([C@H](C)CO)C[C@@H]1C do in these assays?
Env fusion inh: -5[16.7 µM]; Yeast UUG start: -2

How did C[C@@H](NC(=O)C[C@H]1C=C[C@@H](NC(=O)C2CC2)[C@H](CO)O1)c1ccccc1 do in these assays?
Env fusion inh: -33[16.7 µM]; Yeast UUG start: -6

What do the screens show for `O=C(N[C@H]1CC[C@H](CCNS(=O)(=O)c2ccccc2Cl)O[C@H]1CO)c1ccccc1`?
Env fusion inh: -5[16.7 µM]; Yeast UUG start: 2

What do the screens show for `C[C@@H]1CN([C@@H](C)CO)C(=O)Cc2cc(NC(=O)c3ccncc3)ccc2O[C@@H]1CN(C)C(=O)Nc1ccc(C(F)(F)F)cc1`?
Env fusion inh: 37[16.7 µM]; Yeast UUG start: 10

What do the screens show for `CO[C@H]1CN(C)C(=O)c2ccc(NS(=O)(=O)c3ccc(C)cc3)cc2OC[C@@H](C)N(C)C[C@H]1C`?
Env fusion inh: -4[16.7 µM]; Yeast UUG start: 6

What do the screens show for `CC(C)NC(=O)Nc1ccc2c(c1)CC(=O)N([C@H](C)CO)C[C@@H](C)[C@H](CN(C)CC1CCCCC1)O2`?
Env fusion inh: 1[16.7 µM]; Yeast UUG start: -5

What do the screens show for `C[C@@H]1CCCCO[C@@H](CN(C)Cc2ccc3c(c2)OCO3)[C@H](C)CN([C@@H](C)CO)C(=O)c2cc(NC(=O)CCCN(C)C)ccc2O1`?
Env fusion inh: 2[16.7 µM]; Yeast UUG start: 0

Results for C[C@H](CO)N1C[C@H](C)[C@H](CN(C)Cc2ccc(-c3ccccc3)cc2)Oc2ccc(NC(=O)Cc3ccccc3)cc2C1=O ?
Env fusion inh: -11[16.7 µM]; Yeast UUG start: -3

What do the screens show for `Cc1noc(C)c1NC(=O)Nc1ccc2c(c1)CC(=O)N([C@@H](C)CO)C[C@H](C)[C@@H](CN(C)S(=O)(=O)c1cn(C)cn1)O2`?
Env fusion inh: 5[16.7 µM]; Yeast UUG start: -17

What do the screens show for `COc1ccc(S(=O)(=O)Nc2ccc3c(c2)CC(=O)N([C@@H](C)CO)C[C@@H](C)[C@H](CN(C)C(=O)NC2CCCCC2)O3)cc1`?
Env fusion inh: 5[16.7 µM]; Yeast UUG start: -5

What do the screens show for `CC(C)NC(=O)Nc1ccc2c(c1)CC(=O)N([C@H](C)CO)C[C@H](C)[C@@H](CN(C)S(C)(=O)=O)O2`?
Env fusion inh: -13[16.7 µM]; Yeast UUG start: 3

How did C[C@@H]1CN([C@@H](C)CO)C(=O)c2cc(-c3ccc(F)cc3)cnc2O[C@H]1CN(C)CC1CCCC1 do in these assays?
Env fusion inh: 23[16.7 µM]; Yeast UUG start: 9

What do the screens show for `COc1ccc(CN(C)C[C@@H]2OCCCC[C@@H](C)Oc3ccc(NS(=O)(=O)c4ccc(Cl)cc4)cc3C(=O)N([C@H](C)CO)C[C@@H]2C)cc1`?
Env fusion inh: -20[16.7 µM]; Yeast UUG start: -2

What do the screens show for `O=C(Cc1ccncc1)NCC[C@H]1CC[C@H](NC(=O)Nc2cccc(F)c2)[C@@H](CO)O1`?
Env fusion inh: -13[16.7 µM]; Yeast UUG start: 10

How did COc1ccc(S(=O)(=O)N(C)C[C@@H]2OCCCC[C@@H](C)Oc3ccc(NC(=O)CCC(F)(F)F)cc3C(=O)N([C@@H](C)CO)C[C@@H]2C)cc1 do in these assays?
Env fusion inh: -5[16.7 µM]; Yeast UUG start: 49

What do the screens show for `C/C=C/c1cnc2c(c1)C(=O)N([C@H](C)CO)C[C@@H](C)[C@@H](CN(C)C(=O)C1CC1)O2`?
Env fusion inh: -23[16.7 µM]; Yeast UUG start: -11

Results for Cc1noc(C)c1NC(=O)N(C)C[C@@H]1OCCCC[C@@H](C)Oc2ccc(NS(=O)(=O)c3ccccc3)cc2C(=O)N([C@H](C)CO)C[C@@H]1C ?
Env fusion inh: -15[16.7 µM]; Yeast UUG start: 5

What do the screens show for `Cc1noc(C)c1S(=O)(=O)Nc1ccc2c(c1)C(=O)N([C@@H](C)CO)C[C@@H](C)[C@H](CN(C)C(=O)c1ccccc1)OCCCC[C@H](C)O2`?
Env fusion inh: 15[16.7 µM]; Yeast UUG start: 6

Results for C[C@H](CO)N1C[C@H](C)[C@H](CN(C)S(=O)(=O)c2ccccc2)Oc2ncc(C#Cc3ccc(C(F)(F)F)cc3)cc2C1=O ?
Env fusion inh: 37[16.7 µM]; Yeast UUG start: -5

A stretch taken from the entries so far, as a working copy:
How did COc1ccccc1NC(=O)N[C@@H]1CC[C@@H](CCNC(=O)c2ccc3c(c2)OCO3)O[C@H]1CO do in these assays?
Env fusion inh: 9[16.7 µM]; Yeast UUG start: 9

What do the screens show for `C[C@@H]1CCCCO[C@H](CN(C)Cc2ccc3c(c2)OCO3)[C@H](C)CN([C@H](C)CO)C(=O)c2cc(NS(C)(=O)=O)ccc2O1`?
Env fusion inh: 10[16.7 µM]; Yeast UUG start: 16

What do the screens show for `C[C@@H]1CN([C@@H](C)CO)C(=O)c2cc(C3=CCCC3)cnc2O[C@H]1CN(C)C(=O)Nc1ccc(C(F)(F)F)cc1`?
Env fusion inh: 2[16.7 µM]; Yeast UUG start: -7

How did CC(C)C#Cc1ccc2c(c1)O[C@@H](CN(C)C)[C@@H](C)CN([C@@H](C)CO)S2(=O)=O do in these assays?
Env fusion inh: -3[16.7 µM]; Yeast UUG start: -2

Results for COc1cccc(-c2ccc([C@@H]3[C@@H](CO)N(C(=O)Cc4ccccc4)[C@H]3C#N)cc2)c1 ?
Env fusion inh: 16[16.7 µM]; Yeast UUG start: -16

What do the screens show for `C[C@H](CO)N1C[C@H](C)[C@@H](CN(C)C(=O)C2CCCCC2)Oc2ncc(C#CC3(O)CCCC3)cc2C1=O`?
Env fusion inh: 4[16.7 µM]; Yeast UUG start: 20

How did O=C(CCN1CCCCC1)NCC[C@@H]1CC[C@@H](NC(=O)C2CCC2)[C@H](CO)O1 do in these assays?
Env fusion inh: -31[16.7 µM]; Yeast UUG start: 17
